Vaccinia Venus: qHTS for Stage-Specific Inhibitors of Vaccinia Orthopoxvirus: Venus Reporter Primary qHTS; Potency, µM (top dose mostly 36.5 µM), for the others: at the highest dose activity change, negative = inhibition, usual class: inhibitors; AID 720580, 2013; Vaccinia virus Venus reporter expression, fluorescence; hit rate 0.46% among 330,000; active means well fitted inhibition curve with a large enough effect; inconclusive means small, poorly fitted or top-dose-only effect; inactive means no such curve, though single readings can be large or run the other way; tested in A549 cells; also: nearly all actives have a fitted effect of over 30% in size; inactives centre near -10
Vaccinia mCherry: qHTS for Stage-Specific Inhibitors of Vaccinia Orthopoxvirus: mCherry Reporter Primary qHTS; AID 720579, 2013; Potency, µM (series often up to 36.5 µM), inactives show at the top dose activity change, negative = inhibition, hits mostly inhibitors; hit rate 0.63% among 310,000; Vaccinia virus mCherry reporter infection, fluorescence; about a quarter of the inactives have no number; active = well fitted inhibition curve with a large enough effect; inconclusive = small, poorly fitted or top-dose-only effect; inactive = no such curve, though single readings can be large or run the other way; tested in A549 cells; also: nearly all actives have a fitted effect of over 35% in size; inactives centre near -10
Starred values were filed as active, the others as inactive; i = inactive; ? = inconclusive; . = not tested or not shown; [ ] = dose if it differs, or a comment. % is scaled to controls: 0 for no effect and ±100 for the full control effect; potency is read from the fitted curve at half-maximal effect.

SMILES	Vaccinia Venus	Vaccinia mCherry
CCOC(=O)[C@]12CCCC=C1N(Cc1ccc3c(c1)OCO3)C(=O)[C@H](CC(=O)NCCCCc1ccccc1)C2	-25%	-6%
C=CCOn1c(=O)c(-c2ccc(OC)cc2)[n+]([O-])c2ccccc21	-13%	.
CCc1ccc(-c2nn(CC(=O)NCc3ccccc3)c3c2cnc2ccc(F)cc23)cc1	-7%	-8%
CCc1ccc(NC(=O)C2CCN(S(=O)(=O)c3c(C)[nH]c(=O)[nH]c3=O)CC2)cc1	-11%	-5%
O=C1NC(=O)/C(=C\c2cn(CC(=O)N3CCOCC3)c3ccccc23)S1	2%	i
COc1ccc(CN2CCNC(=O)C2CC(=O)N(C)Cc2ccon2)c(F)c1 (stereo not given)	-8%	i
O=c1[nH]c2ccc(Cl)cc2c(=O)n1Cc1ccco1	-7%	-10%
CCOc1cc(S(=O)(=O)N2CCN(CC)CC2)ccc1Cl	-5%	.
NS(=O)(=O)c1ccc(Sc2nc3ccccc3s2)c([N+](=O)[O-])c1	?	?
COc1ccc(-c2cc3nc(C)cc(NCCO)n3n2)cc1	-10%	-2%
Cn1ccnc1C(=O)c1cc(SCC(=O)NC2CC2)nc2ccccc12	-9%	-3%
CCCCC(=O)OCc1c(-c2cccc(OC)c2)ncc2ccccc12	-15%	i
COc1ccc2nc(SCCOC(=O)Nc3ccc(Cl)cc3)nc(C)c2c1	-8%	-11%
O=C(COc1ccc(F)c(Cl)c1)Nc1ccc(N2CCOCC2)cc1	3%	?
COc1ccc(C(CCN2CCOCC2)c2c(OC)cc(OC)c3c(-c4ccccc4)cc(=O)oc23)cc1 (stereo not given)	?	-27%
COc1ccc2oc(=O)c(-c3ccccc3C(=O)N3CCOCC3)cc2c1	-4%	-8%
CN(C(=O)COC(=O)COc1ccc(Cl)cc1)C1CCCCC1	-13%	.
Cc1ccc(C23CC4CC(CC(CN)(C4)C2)C3)cc1	?	?
CCOC(=O)c1ccc(N2C(=O)c3n[nH]c(-c4cccs4)c3C2c2ccc(O)c(OC)c2)cc1 (stereo not given)	-13%	-12%
Cc1ccc(S(=O)(=O)N/N=C\c2ccccc2OCc2ccccc2)cc1	?	-27%

Compound profiles (already shown). Order of screens: Vaccinia Venus | Vaccinia mCherry
Results for COc1ccc(-c2cc3nc(C)cc(NCCO)n3n2)cc1 → -10% | -2%
Results for COc1ccc(C(CCN2CCOCC2)c2c(OC)cc(OC)c3c(-c4ccccc4)cc(=O)oc23)cc1 (stereo not given) → ? | -27%
Results for COc1ccc2oc(=O)c(-c3ccccc3C(=O)N3CCOCC3)cc2c1 → -4% | -8%
Results for CCc1ccc(-c2nn(CC(=O)NCc3ccccc3)c3c2cnc2ccc(F)cc23)cc1 → -7% | -8%

Exported with two lines to a compound: part of the list above
Every second line gives: Vaccinia Venus | Vaccinia mCherry
COc1ccc(-c2cc3nc(C)cc(NCCO)n3n2)cc1
    -10% | -2%
Cn1ccnc1C(=O)c1cc(SCC(=O)NC2CC2)nc2ccccc12
    -9% | -3%

The results go on.
SMILES	Vaccinia Venus	Vaccinia mCherry
Cc1cc(C)c(-c2csc(NC(=O)c3n[nH]c(=O)c4ccccc34)n2)c(C)c1	-12%	-13%
O=c1c(=O)n2c(nn1Cc1ccc(F)cc1)sc1ccccc12	-6%	-13%
COc1ccc(-c2noc(C3CCCN(C(=O)Nc4ccccc4F)C3)n2)cc1 (stereo not given)	-18%	-26%
COc1ccc(CCNC(=O)c2cccc(S(=O)(=O)N3CCCCC3)c2)cc1	-22%	-6%
COc1ccc(C(=O)N/N=C\C(C)=C\c2ccccc2)cc1OC	-28%	?
C[C@H]1CNC(=O)c2c(C(=O)NC3CCN(C(=O)OC(C)(C)C)CC3)ncn21	3%	4%
CC(C)CCNc1nc(-c2ccco2)c2c(c1C#N)CCCC2	-11%	-5%
O=C(c1ccco1)N1CCN(CC(O)COc2ccc(Br)cc2)CC1 (stereo not given)	0%	i
CC(C)(C)OC(=O)CN1C(=O)NC2(CCCc3ccccc32)C1=O (stereo not given)	-17%	-11%
COc1ccc2cc3c(N)nn(C(=O)c4ccc(Cl)c([N+](=O)[O-])c4)c3nc2c1	-16%	i
O=C(COC(=O)/C=C/c1ccc(OC(F)F)cc1)Nc1cccc(S(=O)(=O)N2CCOCC2)c1	-4%	-22%
CC(C)c1ccc(OCC(O)CNC(C)c2ccccc2)cc1 (stereo not given)	?	?
CCOC(=O)C1CCCN(C(=O)c2cccs2)C1 (stereo not given)	-14%	-6%
Cc1ccc2c(C)nc(Nc3nc(CSc4nc5ccccc5[nH]4)cc(=O)[nH]3)nc2c1	-13%	?
c1ccc(-c2[nH]c(-c3ccccc3)[n+](CC3CO3)c2-c2ccccc2)cc1 (stereo not given)	?	?
Cc1cc(N2C(=O)NC(=O)CC2C)c(C)cc1C(C)C (stereo not given)	-14%	i
COc1ccc(C(=O)Nc2ccc3oc(-c4cccc(F)c4)nc3c2)cc1OC	-30%	-3%
Cc1cc(NC(=O)C2CC(=O)N(c3ccc(Cl)cc3)C2)no1 (stereo not given)	-5%	-7%
Cn1c(N)c(C(=O)COC(=O)CSc2cccc3cccc(Cl)c23)c(=O)n(C)c1=O	-3%	0%
CCN1C[C@@H]2[C@@H]3C(=O)N(C)C(=O)[C@@H]3[C@](C)(C1=O)N2C(=O)c1ccccc1	-10%	-13%

Further results follow.
SMILES	Vaccinia Venus	Vaccinia mCherry
CCc1ccc(CN2CCC(n3nccc3NC(=O)c3ccccc3OC)CC2)o1	-22%	-10%
Cc1ccccc1-c1nnc(NC(=O)c2ccc(N3C(=O)CCC3=O)cc2)s1	-9%	-11%
COc1ccc(C)cc1Nc1n[n+](-c2ccccc2)c(-c2c(Cl)cccc2Cl)s1	10µM*	?
COc1cccc(NC(=O)CSc2nc3c([nH]c4ccccc43)c(=O)n2-c2cc(C)cc(C)c2)c1	-15%	-8%
CN(CC1COc2ccccc2O1)C(=O)CCNS(=O)(=O)c1ccc(F)c(Cl)c1 (stereo not given)	-18%	-6%
O=C1NC(=S)N(C(=O)c2ccc(F)cc2)/C1=C/c1ccccc1	59%[activator]	?
Cc1cc(Nc2cccc(C)c2C)n2nc(C)nc2n1	-9%	-8%
CCOC(=O)c1c(NC(=O)c2ccccc2)sc2c1CCc1ccccc1-2	-12%	-3%
CCn1c(SCC(=O)Nc2ccc(OC)cc2)nc2c(c1=O)SCC2	-9%	-15%
O=S1c2ccccc2-c2ccccc21	-6%	i
C(=NN1CCCCCC1)c1cccc2ccccc12	-3%	-9%
O=C(CNS(=O)(=O)c1ccc(Br)s1)NCc1ccccc1	-2%	-21%
CCN(CC)C(=O)CC(c1ccc(N(C)C)cc1)c1c(OC)cc(OC)c2ccc(=O)oc12 (stereo not given)	-10%	i
COCCn1c(C)cc(/C=C2/NC(=O)N(Cc3ccc(C)cc3)C2=O)c1C	-13%	-5%
Cc1noc(C)c1COc1ccccc1C(=O)NNC(=O)c1ccccc1F	-3%	-12%
COC(=O)Nc1ccc(S(=O)(=O)NC2CCS(=O)(=O)C2)cc1 (stereo not given)	-13%	-17%
CCOc1ccc(CNC(=O)c2ccc3c(Cl)c4c(nc3c2)CCCC4)cc1	-15%	-21%
CN(C)CC(=O)Nc1ccc2c(c1)[C@H]1C[C@H](CC(=O)NCc3ccc4c(c3)OCO4)O[C@H](CO)[C@H]1O2	-12%	-1%
COc1ccc(Cl)cc1C(=O)Nc1ccc([N+](=O)[O-])cc1Cl	-10%	-13%
COc1ccc(NC(=O)N(Cc2cccnc2)Cc2ccccc2Cl)c(OC)c1	2%	13%

Further records follow:
SMILES	Vaccinia Venus	Vaccinia mCherry
O=C(CSc1nnc(-c2cccnc2)o1)NNC(=O)c1ccc(Br)cc1	-4%[7.34 µM]	-10%[7.34 µM]
COC(=O)[C@@]12CCCN1[C@H](c1ccc(-c3ccc(OC)cc3)c(OC)c1)[C@@H]1C(=O)N(C)C(=O)[C@@H]12	-26%	-9%
CCCCNS(=O)(=O)c1ccc(NC(=O)c2cccs2)cc1	-10%	-14%
O=S1(=O)N(Cc2ccccc2F)CCCN1Cc1c(F)cccc1Cl	-10%	-3%
O=C(CSc1nnc(NC(=O)C2CCC2)s1)Nc1ccccc1	0%	10%
O=C1c2ccccc2C(=O)c2c1oc(C(F)(F)F)c2C(=O)c1ccccc1	3.2µM*	4.5µM*
C=C(CC1([C@@H](NP(=O)(c2ccccc2)c2ccccc2)[C@H]2C[C@@H]2CCCC)CC1)c1ccccc1	?	?
O=C(NC(=S)Nc1ccc(Cl)cn1)c1cccs1	-10%	.
COc1ccccc1NC(=O)C(C)NC(c1ccccc1)c1ccccc1 (stereo not given)	-10%	-2%
Cc1ccc(NC(=S)NNC(=S)Nc2ccc(C)cc2)cc1	-14%	?
CC1=C(C(=O)Nc2ccc(Cl)cc2)C(c2cccs2)n2nc(SCc3cccc(Cl)c3)nc2N1 (stereo not given)	10%	3%
Cc1csc(SCc2ccccc2C(=O)O)n1	?	-22%
CCOc1cc(CNC)ccc1OCC(=O)NC(C)(C)C	2%	-7%
COc1ccc(NC(=O)CN(C)C(=O)c2ccccc2OCC(=O)Nc2cccc(C(F)(F)F)c2)cc1	-17%	-5%
O=S(=O)(NC1CCc2ccccc21)c1ccccc1 (stereo not given)	-17%	-9%
O=C(CSCc1ccc([N+](=O)[O-])cc1)N/N=C/c1ccncc1	-7%	i
O=C(NCCCN1CCN(c2ccccc2)CC1)c1nnc(Cc2ccc(F)cc2)o1	-6%	-4%
COc1ccc(OC)c(S(=O)(=O)ON2C(=O)c3ccccc3C2=O)c1	-9%	i
COC(=O)[C@]12CCCCC=C1N(Cc1cccc3ccccc13)C(=O)[C@H](CC(=O)NCCC(C)C)C2	-10%	1%
CC[N+](CC)(CC#Cc1ccccc1)CC#Cc1ccccc1	13%	i

(next part)
SMILES	Vaccinia Venus	Vaccinia mCherry
O=C(C=Cc1cccnc1)c1ccccc1	-6%	-15%
C/C(=N\NC(=O)c1c([N+](=O)[O-])c(C)nn1C)c1ccc(NC(=O)C2CCCC2)cc1	-13%	-13%
CC(=O)N(C)c1ccc(N=Cc2cc3c(cc2[N+](=O)[O-])OCO3)cc1	0%[7.34 µM]	-10%[7.34 µM]
Cc1ccc2c(c1)NC(=O)c1cccnc1N2	-10%	-26%[1.46 µM]
COc1cccc(CN2CC(C(=O)N3CCSCC3)CCC2=O)c1 (stereo not given)	-8%	i
O=C(N/N=C/c1ccc(Br)s1)c1ccncc1	-18%	-25%
C/C(N)=C(/C#N)C(=O)COC(=O)C1CCN(S(=O)(=O)c2cccs2)CC1	11%	-14%
CC(C)c1cc(=O)[nH]c(N2CCN(Cc3ccc4c(c3)OCO4)CC2)n1	-12%	-17%
Cn1c(Cn2c(=O)sc3ccccc32)nnc1SCC(=O)N1CCCCCC1	0%	-5%
Cc1csc(NC(=O)c2ccc(OCC3CCCO3)cc2)n1 (stereo not given)	-4%	-12%
COc1ccc(C2=CC(=O)CC(c3ccccc3)C2)cc1 (stereo not given)	-8%	-11%
Cc1cc(C)nc(Sc2ccc(C=O)cc2[N+](=O)[O-])n1	-17%	-4%
CC(Oc1ccc2ccc(=O)oc2c1)C(=O)c1ccccc1 (stereo not given)	-16%	i
O=C(c1cccc(Cl)c1)N1CCN(c2ncnc3c2cnn3-c2ccccc2)CC1	-10%	-13%
CCOC(=O)C1(Cc2cccc(OC)c2)CCCN(C(=O)CNC(C)=O)C1 (stereo not given)	-2%	i
O=C1c2ccccc2NC(c2ccc(O)cc2)N1c1ccccc1 (stereo not given)	-2%	-12%
Cc1onc(-c2ccccc2Cl)c1C(=O)c1ccccc1	3%	0%
CC1(C(=O)NCC2CC2)CCN1C(=O)C1(c2ccc(Cl)cc2)CC1 (stereo not given)	-2%	i
COc1cccc(/C=C/C(=O)NNC(=O)c2ccccc2)c1OC	2%	-3%
CCC(=O)N1CCc2cc(Br)cc(S(=O)(=O)NCCc3ccccc3Cl)c21	-6%	-4%

A few values from the list.
Vaccinia Venus with O=C(N/N=C/c1ccc(Br)s1)c1ccncc1 is entered as -18%
Vaccinia mCherry with Cc1onc(-c2ccccc2Cl)c1C(=O)c1ccccc1 is entered as 0%
Vaccinia Venus with COc1ccc(C2=CC(=O)CC(c3ccccc3)C2)cc1 (stereo not given) is entered as -8%
Vaccinia mCherry with Cc1csc(NC(=O)c2ccc(OCC3CCCO3)cc2)n1 (stereo not given) is entered as -12%
Vaccinia Venus with CC(Oc1ccc2ccc(=O)oc2c1)C(=O)c1ccccc1 (stereo not given) is entered as -16%
Vaccinia Venus with C/C(N)=C(/C#N)C(=O)COC(=O)C1CCN(S(=O)(=O)c2cccs2)CC1 is entered as 11%

Following part
SMILES	Vaccinia Venus	Vaccinia mCherry
Cc1cc(=O)oc2c(CN3CC(C)OC(C)C3)c(O)c(Cl)cc12 (stereo not given)	10%	1%
COc1ccccc1NC(=O)N1CCC(C(=O)c2ccc(Cl)cc2)CC1	-1%	3%
CCn1c2c(c3cc(C(=O)O)ccc31)CCCC2=O	-15%	-18%
CCOC(=O)c1c(C)nc2sc3c(c2c1-c1ccc(OC)cc1)NC(c1ccc(OC)cc1)NC3=O (stereo not given)	-28%	.

Screening results deposited in PubChem BioAssay by National Center for Advancing Translational Sciences (NCATS).

Not a hit list. About 0.87% of those tested had a hit in this group.
